AmpC nodet inh: AmpC beta-lactamase inhibition, detergent-free assay | AmpC nitrocefin hydrolysis, absorbance 480 nm, no detergent; potencies from a single point are estimates | Potency, µM (series often up to 28.7 µM), without a hit: at the highest dose activity change, negative = inhibition | P00811 | 1.8% of 71,000 active; active = falling curve, for most hits resting on a single point; inconclusive = weak or doubtful change; inactive = flat or rising curve; note: % of control where 0% means no effect; about half of the hits show no inhibition at the top dose; a quarter of the inactives give rising signals
Target sequence (P00811 whole entry, looked up): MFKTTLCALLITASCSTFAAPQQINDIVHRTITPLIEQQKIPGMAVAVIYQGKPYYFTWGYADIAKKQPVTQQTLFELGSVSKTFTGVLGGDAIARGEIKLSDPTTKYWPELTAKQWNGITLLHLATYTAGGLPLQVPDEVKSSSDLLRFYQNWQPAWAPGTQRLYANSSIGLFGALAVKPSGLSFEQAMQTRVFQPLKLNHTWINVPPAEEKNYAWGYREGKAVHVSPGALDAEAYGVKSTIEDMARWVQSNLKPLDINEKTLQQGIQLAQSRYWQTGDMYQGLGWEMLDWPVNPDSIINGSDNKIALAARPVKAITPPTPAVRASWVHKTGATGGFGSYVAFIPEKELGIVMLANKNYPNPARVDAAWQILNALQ
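AmpC in 20 mM phosphate buffer pH 7.0 was preincubated 15 min at room temperature with compounds. Nitrocefin (800 uM stock) was then added and hydrolysis followed at 480 nm every 20 s for 4 min.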
* hit, by the source's call; & = joins results of further samples; [ ] = remark or other dose. Potency is the fitted concentration of half-maximal effect. Not all compounds are listed; count on the stated rates, not on these rows.

Start of the data: the first 4 entries as a preview:
SMILES | AmpC nodet inh
CCOC(=O)N1CCN(S(=O)(=O)c2cc(OCC)ccc2OCC)CC1 | 56%
Cn1c(C(=O)NC2CCCCC2)cc2sccc21 | 0%
CCOc1ccc(-c2nc(-c3ccc(OC)c(OC)c3)no2)cc1OCC | 25%
O=C(CN(C(=O)Cn1nnc(-c2cccs2)n1)c1ccc2c(c1)OCCO2)NC1CCCCC1 | 47%

All compounds of this part, from the start:
SMILES | AmpC nodet inh
CCOC(=O)N1CCN(S(=O)(=O)c2cc(OCC)ccc2OCC)CC1 | 56%
Cn1c(C(=O)NC2CCCCC2)cc2sccc21 | 0%
CCOc1ccc(-c2nc(-c3ccc(OC)c(OC)c3)no2)cc1OCC | 25%
O=C(CN(C(=O)Cn1nnc(-c2cccs2)n1)c1ccc2c(c1)OCCO2)NC1CCCCC1 | 47%
Cc1csc(SCC(=O)c2cc(C)n(Cc3cccs3)c2C)n1 | 4%
Cc1ccc2c(c1)cc(CN(CCc1ccccc1)C(=O)N1CCOCC1)c1nnnn12 | 100%
Cc1ccc(C)c(N2CCN(C(=O)c3ccc(CS(=O)(=O)c4ccccc4C)o3)CC2)c1 | 98%
COc1ccc(-c2cc(C(=O)NCc3cccs3)no2)cc1OC | 2%
COc1ccc(OC)c([C@H](O)CNC(=O)CN)c1 | -9%[12.8 µM]
Cc1ccccc1C(=O)Nc1ccc(Br)cn1 | -9%
O=C(NCc1ccco1)c1ccc(OCC2CCCO2)cc1 (centres undefined) | 4%
O=C(Nc1ccc2oc(-c3cccnc3)nc2c1)c1cccnc1 | 10%
COc1ccc(Oc2ncc3nc(-c4cccs4)c(=O)n(CCC#N)c3n2)cc1 | 26%
CCn1c(SCc2nc3ccccc3s2)nc2cc(S(=O)(=O)N3CCOCC3)ccc21 | 96%
Fc1ccc(OCc2nn3cnnc3s2)cc1 | -5%
NC(=O)CN1C2CCC1CC(NC(=O)C1CC1)C2 (centres undefined) | -9%
O=C(CC12CC3CC(CC(C3)C1)C2)N1CCOCC1 | 22%
COc1ccc(CN2CC(C(=O)NCCCOC(C)C)CC2=O)cc1 (centres undefined) | 6%
CC(=O)Nc1cnn(Cc2ccc(Br)cc2)c1 | -1%
CCOC(=O)N1CCC(N2C(=O)c3ccc(C(=O)NCc4ccco4)cc3C2=O)CC1 | 45%
CCOC(=O)CSc1nc2c(c(=O)[nH]c(=O)n2C)n1C/C=C(/C)Cl | 2%
CCCCn1nnc(NC(=O)c2ccco2)n1 | -7%
CCNc1nc(NCC)nc(OCCOC(=O)c2ccccc2)n1 | 2%
COCCCNC(=O)CC(NS(=O)(=O)c1ccc(OC)cc1)c1ccc(OC)cc1 (centres undefined) | 6%
CCCN(CCC)CCNc1c(N2CCN(C(=O)OCC)CC2)c(=O)c1=O | -7%
COc1cc(OC)cc(C(=O)NC2CC3CCC(C2)N3Cc2ccco2)c1 (centres undefined) | 2%
CCOC(=O)C(CCC#N)(CCC#N)C(=O)OCC | 1%
Cc1ccc(S(=O)(=O)NC(=O)N2CCC(C)CC2)cc1 | -12%
c1csc(C(c2nnnn2C2CCCC2)N2CCOCC2)c1 (centres undefined) | 24%
COc1ccc(CCNc2ncnc3[nH]ncc23)cc1OC | -3%

Arranged by molar mass (lowest first): some entries from above.
SMILES | AmpC nodet inh
O=C(CC12CC3CC(CC(C3)C1)C2)N1CCOCC1 | 22%
CC(=O)Nc1cnn(Cc2ccc(Br)cc2)c1 | -1%
Cc1ccc(S(=O)(=O)NC(=O)N2CCC(C)CC2)cc1 | -12%
COc1ccc(CCNc2ncnc3[nH]ncc23)cc1OC | -3%
c1csc(C(c2nnnn2C2CCCC2)N2CCOCC2)c1 (centres undefined) | 24%
COc1ccc(CN2CC(C(=O)NCCCOC(C)C)CC2=O)cc1 (centres undefined) | 6%
CCOC(=O)N1CCC(N2C(=O)c3ccc(C(=O)NCc4ccco4)cc3C2=O)CC1 | 45%

Going on with the list.
SMILES | AmpC nodet inh
COc1ccc(-n2c(SCC#N)nnc2-c2cccnc2)cc1 | 7%
Cc1cccc(Nc2ccccc2)c1 | -17%
CN1C[C@H](CNC(=O)OCc2ccccc2)C[C@H]2c3cccc4c3c(cn4C)C[C@@H]21 | 127%
CCOC(C)OCC | 5%
CCn1c(C(Cc2ccccc2)NC(=O)COC)nc2ccccc21 (centres undefined) | 70%
CC(=O)OC[C@@H]1O[C@@H](Oc2cc(OC(C)=O)c3c(=O)cc(-c4ccc(OC(C)=O)c(OC(C)=O)c4)oc3c2)[C@H](OC(C)=O)[C@H](OC(C)=O)[C@@H]1OC(C)=O | 94%
Cc1cccc(NC(=O)CSc2nnc(CSc3nc(C)cc(C)n3)n2Cc2ccco2)c1 | 88%
Cn1c(CN2CCCCC2)nc2cc(NS(=O)(=O)c3ccc(Cl)cc3)ccc21 | 10%
Cc1ccc(-c2csc(=S)n2CC(=O)OCC(=O)NCc2ccco2)cc1 | 9%
O=C(CSc1ccc(Cl)cc1)Nn1cnnc1 | 7%
O=C(NCc1cccs1)c1ccc(N2CCCCC2)nc1 | 0%
O=C(NCC(=O)N(CCN1CCOCC1)C(C(=O)NC1CCCC1)c1cccs1)c1ccco1 (centres undefined) | -7%
N#Cc1ccc(CN2CCCC3(CCN(C(=O)c4csnn4)CC3)C2)cc1 | 31%
Cc1noc(C)c1S(=O)(=O)N1CCCC(C(=O)NCCc2ccccc2)C1 (centres undefined) | 5%
COc1cc(C(=O)n2nc(C)cc2C)cc(OC)c1OC | 11%
Cc1cc(C(F)F)n2ncc(C(=O)NCc3ccccc3)c2n1 | 18%
Cn1c(SCC(=O)NC2CC2)nnc1-c1ccco1 | -5%
NNc1c(C(N)=O)c2c(N)ncnc2n1[C@@H]1O[C@H](CO)[C@@H](O)[C@@H]1O | -12%[5.75 µM]
COc1ccc(OC)c(C2NC(=O)NC(C)=C2C(=O)Nc2ccc(C)cc2)c1 (centres undefined) | 49%
CCC1CCCCN1CCNC(=O)C1CCN(S(=O)(=O)c2c(C)noc2C)CC1 (centres undefined) | 10%
Cc1cc2c(c(=O)o1)C(C(C)C)C(C#N)=C(N)O2 (centres undefined) | -14%
Cc1nnc(NC(=O)CCC(=O)NCc2ccco2)s1 | 13%
CN1CCN(C2=C(Cl)C(=O)N(c3ccc(Cl)cc3)C2=O)CC1 | -2%
Cc1nc2ccc3nc(NC(=O)c4ccco4)sc3c2s1 | 6%
CCOC(=O)N1CCN(c2c(NCCc3ccc(OC)c(OC)c3)c(=O)c2=O)CC1 | 4µM*[single pt active]
Cc1cc2nc(N)sc2cc1C | -3%
O=S(=O)(c1ccc(Oc2ccc3oc4ccccc4c3c2)nc1)N1CCCC1 | -8%
Cc1cccc(C)c1NC(=O)N1CCC(c2nc3ccccc3o2)CC1 | 18%
COCCCN1C(=O)C(=O)/C(=C(/O)c2ccc(OC(C)C)cc2)C1c1ccncc1 (centres undefined) | -9%
O=C(O)c1ccc(O)cc1O | -1%&-17%
CCOC(=O)N1CCN(S(=O)(=O)c2cc(C)c(C)cc2C)CC1 | 52%
NC(=O)CSc1oc(-c2ccc(F)cc2)nc1S(=O)(=O)c1ccccc1 | -9%
O=C(c1cccs1)N1CCCC(c2ccccc2)C1 (centres undefined) | 15%
O=C(O)CC(NC(=O)c1ccccc1NC(=O)c1ccccc1)C(=O)O (centres undefined) | -4%
O=C(Nc1ccon1)c1cccc(S(=O)(=O)N2CCCC2)c1 | -12%
COCCn1c(SCC(=O)Nc2ccccc2)nc2c1c(=O)[nH]c(=O)n2C | 13%
Cc1nc(C)n(CC(O)COc2ccc3cc(Br)ccc3c2)n1 (centres undefined) | 125%
CCC(=O)c1cc(F)c(N2CCN(S(=O)(=O)c3ccccc3)CC2)cc1C | 0%
C#CC(CO)N(CCN(Cc1ccccc1)C(C#C)CO)Cc1ccccc1 (centres undefined) | 82%
CSCCC(NC(N)=O)C(=O)NCC1CCCCC1 (centres undefined) | 19%
COCC(C)n1c(SCc2ccc(C(=O)OC)o2)nc2ccccc2c1=O (centres undefined) | 70%
N#CCCS(=O)(=O)c1nnnn1-c1ccccc1 | 0%
CCOC(=O)c1ccccc1NC(=O)COC | 5%
CCOc1ccc(NC(=O)C2CC(=O)N(CC)C(=Nc3ccc4c(c3)OCO4)S2)cc1 (centres undefined) | 43%
Cc1ccc(Nc2nc(N)nc(CSc3nccn3C)n2)c(C)c1 | 0%
COc1cc2c(cc1OC)CN(C(=O)CC1CC3CCC1C3)CC2 (centres undefined) | -20%
O=c1cnc2cnc(Oc3cccc(Cl)c3)nc2n1Cc1ccc(F)cc1 | 50%
O=C(Nc1cccc2c1CCCC2)C1CCCN(S(=O)(=O)c2cccc3nonc23)C1 (centres undefined) | -18%
COC(=O)N1CCN(c2ccc(C(C)=O)cc2)CC1 | 2%
CCOC(=O)/C(C(N)=NC(C)C)=C(\O)c1ccccc1 | 12%
Cc1cc(C)cc(N(C(=O)CNC(=O)c2ccco2)C(C(=O)NC2CCCC2)c2cccnc2)c1 (centres undefined) | 72%
COc1ccc(CCNC(=O)c2nnc(Cc3c(F)cccc3Cl)o2)cc1OC | 42%
CCCn1c(-c2ccc(F)cc2)nc2c(NCCCCN(C)C)nc(C)nc21 | 26%
O=C(c1cnccn1)N1CCC2(CC1)CN(c1ncccn1)C2 | 5%
O=C1Nc2ccccc2C12OCCCO2 | -13%
CCN(CC)C(=O)c1csc(Nc2ccc(C)cc2)n1 | 21%
Cc1[nH]c(=O)[nH]c(=O)c1S(=O)(=O)N1CCC(C(=O)N2CCN(Cc3ccccc3)CC2)CC1 | 8%
C=CCN=c1sc(C(=O)OC)cc(=O)n1CC=C | 8%
O=C(Cn1c(=O)oc2cc(S(=O)(=O)N3CCOCC3)ccc21)N1CCc2ccccc2C1 | 29%
O=C(Nc1ccccc1N1CCN(C(=O)c2ccccc2)CC1)c1cc2ccccc2o1 | 39%

(continued)
SMILES | AmpC nodet inh
CSc1nsc(SC)c1NC(=O)OCCc1ccccn1 | 4%
Nc1ccn([C@H]2O[C@H](CO)[C@@H]3[O][Sn]([c]4ccccc4)([c]4ccccc4)[O][C@H]32)c(=O)n1 | -4%[5.75 µM]
Nn1cc(-c2ccccc2)nc1SCC(=O)NC1CCS(=O)(=O)C1 (centres undefined) | 10%
Cc1noc(C)c1C(=O)N1CCC2(CC1)CN(c1ccccc1)C2 | 49%
Cc1c(NC(=O)COC(=O)C2CC3C=CC2C3)c(=O)n(-c2ccccc2)n1C (centres undefined) | -1%
O=C(COc1ccc(S(=O)(=O)N2CCCC2)cc1)NCc1ccco1 | 3%
COC(=O)C(C)Sc1ccc2nnc(-c3ccc(F)cc3)n2n1 (centres undefined) | 13%
O=C(NCc1ccoc1)c1ccc(NC(=O)c2ccccc2Cl)cc1 | -13%
O=C(NCCCN1CCCC1=O)c1ccc2c(c1)OCO2 | -7%
Cc1cccc(-n2c(N)cc(=O)nc2SCC(=O)NC2CCCCC2)c1 | 5%
Cc1ccccc1OCc1nc2ccccc2c(=O)n1/N=C/c1ccco1 | 27%
CCCCc1c(O)nc(SCC(=O)c2ccccc2)[nH]c1=O | -17%
O=C(CSc1ccccn1)Nc1ccccc1F | 3%
O=C1c2ccccc2C(=O)N1CCCc1nc2ccccc2c(=O)n1CCCn1ccnc1 | 110%
CCn1c(Cc2ccccc2)nnc1SCC(=O)Nc1ccccc1 | 31%

Some of the entries above, reformatted.
SMILES,AmpC nodet inh
O=C(NCCCN1CCCC1=O)c1ccc2c(c1)OCO2,-7%
Cc1cccc(-n2c(N)cc(=O)nc2SCC(=O)NC2CCCCC2)c1,5%
Cc1ccccc1OCc1nc2ccccc2c(=O)n1/N=C/c1ccco1,27%

Additional records.
SMILES | AmpC nodet inh
COc1ccc(/C=N/O)cc1COc1ccc(NC(C)=O)cc1 | 8%
Cc1ccccc1OCc1nnc2n1CC(C)S2 (centres undefined) | 16%
CN1CCN(c2ncnc3ccc(-c4cccc(NS(C)(=O)=O)c4)cc23)CC1 | 5%
CCCOc1ccc(C2C(=O)N(C3CCCCC3)CC(=O)N2C2CC2)cc1OC (centres undefined) | 73%
COc1cc(S(=O)(=O)N2CCN(Cc3ccc4c(c3)OCO4)CC2)c(C)cc1C | 46%
CCOC(=O)N1CCN(C(=O)CN(c2ccc3c(c2)OCO3)S(C)(=O)=O)CC1 | 8%
CCOc1ccc2nnnn2n1 | -10%
Nc1nc(=O)c2[nH]cnc2n1O | -1%[5.75 µM]
COc1cccc(C(=O)OCc2ccccc2C#N)c1O | -3%
O=c1c2c3c(sc2ncn1/N=C/c1ccco1)CCCC3 | 4%
CN(C(=O)c1cccc(C#N)c1)c1nnc(-c2ccccn2)s1 | 32%
CCCCn1c(O)c(C=NC2CC3CCC2(C)C3(C)C)c(=O)[nH]c1=O (centres undefined) | 41%
O=CN1CCN(C2CC(=O)N(c3ccc4c(c3)OCO4)C2=O)CC1 (centres undefined) | 1%
c1ccc2cc(OCCN3CCCC3)ccc2c1 | 5%
COc1ccccc1NC(=O)Cc1nn(C)c(=O)c2ccccc12 | 13%
Fc1ccc(-c2nnc(Cc3nnc(-c4ccc(F)cc4)o3)o2)cc1 | 7%
O=C(NCc1ccc(F)cc1)C1CCCN(S(=O)(=O)c2cccnc2)C1 (centres undefined) | 5%
O=C(O)[C@H](Cc1c[nH]c2ccccc12)N1C(=O)c2ccccc2C1=O | -2%[5.75 µM]
Cc1ccc2c(c1)NCCO2 | -9%
CC[C@@H](c1ccc2cc(O)ccc2c1)C(C)(C)C(=O)O | -5%[5.75 µM]
COc1cc2ccc(=O)oc2cc1O | -17%
Cc1ccc(-c2c3c(=O)n(C)c(=O)n(C)c3cn2CCCN2CCOCC2)cc1 | 47%
Cc1cc(C(=O)CSc2nncs2)c(C)n1-c1ccc2c(c1)OCO2 | 0%
COc1ccc(S(=O)(=O)N(C)CC(=O)Nc2ccc(F)cc2)cc1 | 0%
CN(C)CCNc1oc(-c2ccccc2F)nc1C#N | 4µM*[single pt active]

Screening results as filed in PubChem BioAssay.
